High-throughput results as filed in PubChem BioAssay.
YB-1 expression – YB-1 expression inhibition; U2OS, qRT-PCR YB-1 vs CDIP delta delta Cp, 16 h; stronger effect = higher value; zero = DMSO, each unit about twofold; delta delta Cp (YB-1 minus CDIP) (test concentration not listed); 0.37% of 30,000 active; AID 434959;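 active means delta delta Cp rounded down to an integer at or above 3, about 3 SD of DMSO wells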;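 further: higher means less YB-1 transcript or more CDIP transcript relative to DMSO; stock transfer was 100 nL into about 100 µL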
PD-1 reverse act – activators reversing PD-1 mediated T-cell inhibition | AID 2316 | activation, % (no concentration beside the values) | 29,000 tested, under 10 active | primary human CD4 T cells, PD-L1 beads, CellTiter-Glo 96 h;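 active means replicate mean of 50% or more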;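 further: 0% = median vehicle wells and 100% = positive control; 100 nL library stock added to about 50 µL; numbers are from one replicate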
Shh pathway inh – blocks Sonic Hedgehog signaling | AID 2313 | 2.1% of 22,000 active | Shh-LIGHT2 Gli-luciferase reporter, 30 h | inhibition, % (no concentration beside the values);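 active means replicate mean of 65% or more; inconclusive means mean lower but half the replicates past it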;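 further: pathway switched on by Shh-conditioned medium diluted 1 in 25 in low serum; 100 nL library stock added to about 40 µL; 0% = median of neutral wells and 100% = positive control level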
MITF inhib – inhibitors of MITF | TRPM1 promoter luciferase, luminescence, 24 h | inhibition, % (concentration not given with the values) | 0.28% of 37,000 active;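 active means most replicates at 85% or more, or half of them and the mean; inconclusive means half reach 85% but not the mean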;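 further: human melanocyte line stably carrying TRPM1 promoter luciferase reporter; 0% = vehicle wells and 100% = a positive control; the first replicate is given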
An asterisk follows results filed as active; ? = inconclusive; · = not tested or not shown. This is a subset, so the mix of outcomes need not match the whole.

cpd	SMILES	Shh pathway inh	YB-1 expression	MITF inhib	PD-1 reverse act
1	O=C(CN1C(=O)c2ccccc2C1=O)Nc1ccc(S(=O)(=O)N2CCCCCC2)cc1	·	·	-10.0	2.7
2	COc1cc(C(=O)NC(=S)Nc2cccc(-c3nc4ncccc4o3)c2C)cc(OC)c1OC	·	·	19.4	-4.4
3	COc1cccc(C(=O)/C=c2\[nH]c(=O)/c(=C\c3cccs3)s2)c1	-1.5	-0.519	-26.6	-4.9
4	COc1ccc(CN(C)C[C@H]2Oc3c(NC(=O)Nc4c(C)noc4C)cccc3C(=O)N([C@H](C)CO)C[C@@H]2C)cc1	-7.9	-0.193	-2.1	·
5	C[C@@H]1CCCCO[C@H](CN(C)S(=O)(=O)c2ccc(F)cc2)[C@@H](C)CN([C@H](C)CO)C(=O)c2cc(NC(=O)c3ccccc3)ccc2O1	?	0.0403	17.6	-1.1
6	Cc1noc(C)c1NC(=O)N(C)C[C@@H]1OCCCC[C@@H](C)Oc2ccc(NS(=O)(=O)c3cn(C)cn3)cc2C(=O)N([C@H](C)CO)C[C@@H]1C	·	0.0861	2.4	1.3
7	COc1ccc(S(=O)(=O)Nc2cccc3c2O[C@H](CN(C)CC2CC2)[C@H](C)CN([C@@H](C)CO)C3=O)cc1	-37.5	-0.386	-3.9	1.1
8	C[C@@H]1CN([C@H](C)CO)C(=O)Cc2cc(NC(=O)CCC(F)(F)F)ccc2O[C@@H]1CN(C)S(=O)(=O)c1cn(C)cn1	-21.5	0.148	-16.8	-0.1
9	C[C@H]1CN([C@@H](C)CO)C(=O)c2cc(NC(=O)Cc3cn(C)c4ccccc34)ccc2O[C@@H]1CN(C)Cc1ccc(Oc2ccccc2)cc1	·	-0.135	24.9	·
10	C[C@@H]1CN([C@@H](C)CO)C(=O)c2cc(NS(=O)(=O)c3ccc(Cl)cc3)ccc2O[C@H]1CN(C)S(=O)(=O)c1ccccc1	29.9	-0.0406	22.9	0.3
11	COc1ccc(CN(C)C[C@H]2Oc3ccc(NC(=O)Nc4c(C)noc4C)cc3C(=O)N([C@@H](C)CO)C[C@@H]2C)cc1	·	0.285	-12.5	2.6
12	C[C@@H]1CN([C@H](C)CO)C(=O)Cc2cc(NS(=O)(=O)c3ccc(Cl)cc3)ccc2O[C@@H]1CN(C)S(=O)(=O)c1ccccc1	7.9	0.0516	-3.7	-3.2
13	CC(NS(=O)(=O)c1ccccc1)C(=O)Nc1ccccc1F (stereo not given)	·	·	4.5	1.6
14	Cc1sc2nc3scc(CC(=O)NCCO)n3c(=O)c2c1C	·	·	-25.9	-0.3
15	N#CC(C#N)Cc1ccc(O)cc1	?	-0.234	7.9	2.5

Later entries
cpd	SMILES	Shh pathway inh	YB-1 expression	MITF inhib	PD-1 reverse act
16	C[C@@H]1CN([C@@H](C)CO)C(=O)c2cccc(NC(=O)C3CC3)c2O[C@H]1CN(C)Cc1ccc(Cl)c(Cl)c1	-4.6	-0.459	-7.4	-1.2
17	Cc1cccc(OCC(=O)Nc2cccc(-c3nnc(-c4ccccc4)o3)c2)c1C	·	·	-77.0	-7.5
18	C[C@@H]1CN([C@H](C)CO)C(=O)c2cccc(NC(=O)Nc3ccc4c(c3)OCO4)c2O[C@@H]1CN(C)S(=O)(=O)c1cn(C)cn1	27.6	-0.236	0.5	1.3
19	C[C@H]1CC[C@@H]2[C@@H](C(=O)c3c(O)c([C@]4(O)CC[C@@H](O)[C@H]5O[C@H]54)c[nH]c3=O)[C@@H](C)C=C[C@H]2C1	95.9*	-0.357	74.3	-21.7
20	CC1(C)CC[C@]2(C(=O)OC3OC(CO)C(O)C(O)C3O)CC[C@]3(C)C(=CCC4[C@@]5(C)CC[C@H](OC6OC(C(=O)O)C(O)C(O)C6O)C(CO)(CO)C5CC[C@]43C)[C@@H]2C1 (stereo not given in full)	27.2	1.17	39.9	-2.8
21	COc1ccccc1NC(=O)CSc1nc2sc(C)c(C)c2c(=O)n1-c1ccc(C)c(C)c1	·	·	3.2	-2.1
22	CCOC(=O)c1ccc(NC(=O)CN2C(=O)c3ccccc3S2(=O)=O)cc1	·	·	-16.9	3.9
23	C[C@H]1CN([C@@H](C)CO)C(=O)c2cc(NC(=O)CCCCCC(=O)Nc3ccccc3N)ccc2O[C@@H]1CN(C)S(=O)(=O)c1cn(C)cn1	·	0.00739	-5.3	1.4
24	Cc1ccc2nc(Nc3ccccc3)nc(-c3ccccc3)c2c1	44.2	-0.931	-7.9	-1.4
25	C[C@H]1CN([C@@H](C)CO)C(=O)c2cc(NC(=O)CCN3CCOCC3)ccc2O[C@@H]1CN(C)S(=O)(=O)c1ccc(F)cc1	·	0.751	1.7	·
26	Cc1ccc(S(=O)(=O)N(C)C[C@@H]2Oc3c(NC(=O)c4ccc(-c5nccs5)cc4)cccc3C(=O)N([C@@H](C)CO)C[C@@H]2C)cc1	-5.5	0.358	-21.7	·
27	C[C@H]1CN([C@@H](C)CO)C(=O)Cc2cc(NC(=O)CCN3CCOCC3)ccc2O[C@@H]1CN(C)C	-2.5	0.0906	7.0	·
28	C[C@H]1CN([C@@H](C)CO)C(=O)Cc2cc(NC(=O)Cc3cn(C)c4ccccc34)ccc2O[C@H]1CN(C)C(=O)Nc1ccc2c(c1)OCO2	1.5	-0.0545	-9.9	-0.9
29	CNC[C@H]1Oc2ccc(NC(=O)CCC(F)(F)F)cc2CC(=O)N([C@@H](C)CO)C[C@@H]1C	-10.5	-0.309	-3.3	·
30	O=C(CNS(=O)(=O)c1ccccc1)Nc1ccc(Cl)c(C(F)(F)F)c1	·	·	-5.7	-2.2

(further entries)
cpd	SMILES	Shh pathway inh	YB-1 expression	MITF inhib	PD-1 reverse act
31	COC(=O)CNC(=O)c1cn(-c2ccccc2)nc1-c1ccccc1	·	·	-75.1	1.9
32	C[C@H]1CN([C@@H](C)CO)C(=O)c2cccc(NS(=O)(=O)c3cn(C)cn3)c2O[C@H]1CN(C)C(=O)Nc1ccc(F)cc1	-40.3	-0.108	-4.9	0.6
33	COc1ccccc1Nc1nc(N)nc(CN2CCC(Cc3ccccc3)CC2)n1	·	·	-1.9	-2.9
34	C[C@@H]1CCCCO[C@H](CN(C)C(=O)Nc2ccccc2)[C@@H](C)CN([C@H](C)CO)C(=O)c2cc(NS(C)(=O)=O)ccc2O1	·	-0.101	-6.6	·
35	COc1ccc(CCNC(=O)c2nc3ccccc3c(=O)n2-n2cccc2)cc1OC	22.8	-0.778	-10.7	0.7
36	CC(C)NC(=O)Nc1ccc2c(c1)C(=O)N([C@@H](C)CO)C[C@@H](C)[C@@H](CN(C)S(=O)(=O)c1cccs1)O2	-8.4	-0.125	4.0	0.8
37	O=C1c2ccccc2-c2c1c1ccccc1c(=O)n2CC1CC1	-75.0	0.0877	-8.8	3.5
38	N#Cc1cccc(NC(=O)CCCN2C(=O)c3ccccc3C2=O)c1	·	·	-2.6	2.1
39	C[C@H](CO)N1C[C@H](C)[C@H](CN(C)S(=O)(=O)c2ccc(Cl)cc2)Oc2ccc(NC(=O)Cc3cn(C)c4ccccc34)cc2CC1=O	10.3	-0.181	30.1	-0.8
40	CC1(C)OC[C@@H]([C@H](O)P(=O)(c2ccccc2)c2ccccc2)O1	-45.9	-0.0302	5.5	1.0
41	C[C@@H]1CN([C@H](C)CO)C(=O)c2cccc(NC(=O)C3CCOCC3)c2O[C@@H]1CN(C)S(=O)(=O)c1ccc(F)cc1	-27.5	0.0172	-8.4	2.3
42	C[C@H](CO)N1C[C@H](C)[C@@H](CN(C)Cc2ccc(C(F)(F)F)cc2)Oc2c(NC(=O)c3cnccn3)cccc2C1=O	10.8	-0.0127	-7.0	-0.6
43	Cc1noc(C)c1NC(=O)N(C)C[C@H]1Oc2ccc(NC(=O)c3ccncc3)cc2C(=O)N([C@@H](C)CO)C[C@H]1C	13.3	-0.154	-2.5	0.9
44	C[C@H](CO)N1C[C@H](C)[C@H](CN(C)Cc2ccncc2)Oc2ccc(NC(=O)Cn3cnnn3)cc2C1=O	·	0.257	1.8	0.0
45	C[C@@H]1CN([C@@H](C)CO)C(=O)c2cccc(NC(=O)Nc3ccc(C(F)(F)F)cc3)c2O[C@@H]1CN(C)Cc1ccc(Cl)c(Cl)c1	2.2	-0.299	-5.4	-2.7

From no. 40 as far as 45, as listed above:
cpd	SMILES	Shh pathway inh	YB-1 expression	MITF inhib	PD-1 reverse act
40	CC1(C)OC[C@@H]([C@H](O)P(=O)(c2ccccc2)c2ccccc2)O1	-45.9	-0.0302	5.5	1.0
41	C[C@@H]1CN([C@H](C)CO)C(=O)c2cccc(NC(=O)C3CCOCC3)c2O[C@@H]1CN(C)S(=O)(=O)c1ccc(F)cc1	-27.5	0.0172	-8.4	2.3
42	C[C@H](CO)N1C[C@H](C)[C@@H](CN(C)Cc2ccc(C(F)(F)F)cc2)Oc2c(NC(=O)c3cnccn3)cccc2C1=O	10.8	-0.0127	-7.0	-0.6
43	Cc1noc(C)c1NC(=O)N(C)C[C@H]1Oc2ccc(NC(=O)c3ccncc3)cc2C(=O)N([C@@H](C)CO)C[C@H]1C	13.3	-0.154	-2.5	0.9
44	C[C@H](CO)N1C[C@H](C)[C@H](CN(C)Cc2ccncc2)Oc2ccc(NC(=O)Cn3cnnn3)cc2C1=O	·	0.257	1.8	0.0
45	C[C@@H]1CN([C@@H](C)CO)C(=O)c2cccc(NC(=O)Nc3ccc(C(F)(F)F)cc3)c2O[C@@H]1CN(C)Cc1ccc(Cl)c(Cl)c1	2.2	-0.299	-5.4	-2.7

(more compounds)
cpd	SMILES	Shh pathway inh	YB-1 expression	MITF inhib	PD-1 reverse act
46	O=C1C2=C(C(=O)N1c1ccc(Br)cc1)C(c1ccccc1)=NCCN2	42.0	-0.107	14.2	3.9
47	C[C@H]1CN([C@@H](C)CO)C(=O)c2cccc(NC(=O)c3cnccn3)c2O[C@H]1CN(C)Cc1ccc(C(=O)O)cc1	-8.9	0.0389	-4.4	1.9
48	C[C@H]1CN([C@@H](C)CO)C(=O)Cc2cc(NC(=O)c3ccncc3)ccc2O[C@H]1CN(C)Cc1ccc(Oc2ccccc2)cc1	-30.6	0.27	-2.1	-6.8
49	C[C@@H]1CN([C@H](C)CO)C(=O)c2cccc(NC(=O)Nc3cccc4ccccc34)c2O[C@@H]1CN(C)Cc1ccncc1	9.9	-0.397	-1.3	0.9
50	C[C@@H]1CN([C@@H](C)CO)C(=O)c2cc(NC(=O)Nc3ccc(F)cc3)ccc2O[C@@H]1CN(C)C(=O)Nc1ccc2c(c1)OCO2	-5.1	-0.209	-25.1	-2.0
51	C[C@@H]1CN([C@H](C)CO)C(=O)c2cc(N(C)C)ccc2O[C@@H]1CN(C)Cc1ccc(C(=O)Nc2ccccc2N)cc1	·	-0.319	40.7	-4.6
52	O=C(COc1ccc(C(=O)Nc2ccc(Cl)cc2)cc1)Nc1ccccc1C(F)(F)F	·	·	-3.9	0.1
53	C[C@@H]1CN([C@@H](C)CO)C(=O)c2cc(NC(=O)c3ccncc3)ccc2O[C@@H]1CN(C)Cc1ccc(C(=O)Nc2ccccc2N)cc1	·	0.0777	-19.1	-0.7
54	C[C@@H]1CN([C@@H](C)CO)C(=O)Cc2cc(N(C)C)ccc2O[C@@H]1CN(C)S(=O)(=O)c1cccs1	24.8	0.144	6.2	0.7
55	C[C@@H]1CN([C@H](C)CO)C(=O)Cc2cc(NS(=O)(=O)c3cccs3)ccc2O[C@@H]1CN(C)S(C)(=O)=O	-6.0	0.115	-13.6	2.1
56	COc1ccc(NC(=O)N(C)C[C@H]2Oc3c(NC(=O)NC(C)C)cccc3C(=O)N([C@@H](C)CO)C[C@H]2C)cc1	-18.8	0.741	5.0	2.1
57	Cc1ccc(S(=O)(=O)N(C)C[C@H]2OCCCC[C@@H](C)Oc3ccc(NC(=O)Nc4ccc(F)cc4)cc3C(=O)N([C@H](C)CO)C[C@@H]2C)cc1	15.1	1.3	13.2	·
58	C[C@@H]1CN([C@H](C)CO)C(=O)Cc2cc(NS(C)(=O)=O)ccc2O[C@H]1CN(C)S(=O)(=O)c1cn(C)cn1	-20.8	0.217	-9.9	1.0
59	CC1CC(C)CN(c2ccc(NS(=O)(=O)c3ccccc3)cc2C(=O)O)C1 (stereo not given)	4.8	-0.121	3.9	0.0
60	O=C(c1nc2ncccn2n1)N1CCc2ccccc2C1	-11.0	0.0222	5.3	1.5
61	CCOC(=O)c1c(NC(=O)c2ccc(C)c(S(=O)(=O)N3CCCC3)c2)sc(C)c1C	·	·	-5.1	-3.7
62	COc1ccc(NC(=O)CSc2nc(N3CCCCC3)nc(N3CCCCC3)n2)cc1	·	·	4.3	-0.6

Given with two lines to a compound: entries from further up
The line under a structure holds: Shh pathway inh	YB-1 expression	MITF inhib	PD-1 reverse act
54	C[C@@H]1CN([C@@H](C)CO)C(=O)Cc2cc(N(C)C)ccc2O[C@@H]1CN(C)S(=O)(=O)c1cccs1
→ 24.8	0.144	6.2	0.7
55	C[C@@H]1CN([C@H](C)CO)C(=O)Cc2cc(NS(=O)(=O)c3cccs3)ccc2O[C@@H]1CN(C)S(C)(=O)=O
→ -6.0	0.115	-13.6	2.1
